# Calb FLC: C. albicans growth inhibition with fluconazole, primary screen, CaCi-2 strain, Alamar Blue fluorescence; C. albicans CaCi-2 (fluconazole-resistant clinical isolate) + fluconazole, 48 h; growth inhibition, % (concentration not given with the values); 300,000 tested, 0.57% active;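 active = most replicates above 75%; inconclusive = exactly half above 75%; inactive = most below 75%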;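 note: all wells also contain fluconazole at 8 µg/ml as a sub-toxic cotreatment; 0% = median of DMSO wells and 100% = median of geldanamycin control wells; wells of about 8 µL received 7.5 nL stock; the first replicate is given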
# Beta cell apopt: inhibitors of cytokine-induced beta cell apoptosis, primary screen, luminescence; AID 435005, 2010; INS-1E cytokine-induced death, ATP luminescence, 48 h; percent of positive-control rescue, neutral wells zero; 300,000 tested, 0.8% active; protection from apoptosis, % (concentration not given with the values);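 active = all replicates at 75% or more, or half of them and the mean; inconclusive = half reach 75% but not the mean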;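 note: 0% = cytokine-treated negative control wells and 100% = positive control rescue; higher means more ATP so stronger rescue from cytokine killing; wells of about 40 µL received 100 nL stock; the first replicate is given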
# AF4-AF9 inh: inhibitors of AF4 peptide binding to AF9, primary screen, biochemical, AlphaScreen, biotin-AF4 peptide, FLAG-AF9, single point | Protein AF-9 (Homo sapiens), P42568 | inhibition, % at 10 µM | AID 651704, 2012 | 350,000 tested, 0.47% active;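 active = every replicate reaching a set inhibition limit, whatever the replicate mean, cut at about 25% in these data; inconclusive = mean inhibition reaches that limit but some replicates miss it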;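 note: 0% = plate neutral control median and 100% = total signal loss; the record names both 10 and 1 µM as test concentration; the first replicate is given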
# Target sequence (P42568 whole entry, looked up): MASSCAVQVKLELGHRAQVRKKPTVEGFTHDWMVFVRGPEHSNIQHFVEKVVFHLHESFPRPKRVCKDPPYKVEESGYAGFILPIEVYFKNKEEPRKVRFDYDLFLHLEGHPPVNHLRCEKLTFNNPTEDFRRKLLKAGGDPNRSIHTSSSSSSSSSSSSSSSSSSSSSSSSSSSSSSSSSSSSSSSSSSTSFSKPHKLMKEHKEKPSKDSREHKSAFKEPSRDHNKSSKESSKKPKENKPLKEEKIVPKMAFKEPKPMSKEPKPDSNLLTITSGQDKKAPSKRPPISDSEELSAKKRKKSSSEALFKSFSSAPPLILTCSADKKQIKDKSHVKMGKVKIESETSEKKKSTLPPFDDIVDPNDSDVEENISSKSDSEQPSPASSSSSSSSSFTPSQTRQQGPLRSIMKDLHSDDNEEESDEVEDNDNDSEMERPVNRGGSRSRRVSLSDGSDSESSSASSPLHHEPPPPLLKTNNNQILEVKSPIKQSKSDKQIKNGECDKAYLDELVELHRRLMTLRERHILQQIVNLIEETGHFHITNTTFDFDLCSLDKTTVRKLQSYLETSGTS
# RanGTP-Imp inh: inhibitors of RanGTP-importin-beta interaction, primary screen, biochemical, FRET, CFP-Ran, YFP-importin-beta, homogeneous | Ran GTPase (GTP-bound) - importin-beta complex | cell-free CFP-Ran/YFP-importin-beta FRET ratio | inhibition, % (no concentration beside the values) | 300,000 tested, 1.1% active | AID 2216, 2009;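 active = most replicates above 15%; inconclusive = exactly half above 15%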;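 note: 0% = DMSO wells and 100% = Ran loaded with GDP instead of GTP; wells of about 40 µL received 100 nL stock; the first replicate is given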
# T cruzi inh: inhibitors of intracellular T. cruzi growth, primary screen, luminescence, NIH3T3 host cells; T. cruzi beta-gal in NIH3T3, 90 h; 300,000 tested, 1.4% active; inhibition, % (test concentration not listed);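 active = mean inhibition across valid replicates above about 55%, limit read from the data; inconclusive = mean below that limit but half or more replicates reach it; inactive = mean below it, under half of replicates reach it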;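 note: signal also drops with host cell toxicity which is not excluded here; 0% = plate median of DMSO wells and 100% = zero luminescence signal; higher percent means less beta-gal luminescence so fewer parasites; stock transfer was 50 nL into about 50 µL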
# Ecoli rRNA inh: reduced GFP signal of wild-type E. coli, primary screen, bacterial rRNA inhibitor project, GFP/RFP fluorescence, OD600, single point; E. coli WT GFP vs humanized-ribosome RFP mutants, 24 h; stronger effect = lower value; DMSO median 0, no signal -100; GFP signal change (wild-type ribosome), % (test concentration not listed); 350,000 tested, 1.6% active; AID 720706, 2013;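 active = significant combined selectivity score with lowered wild-type GFP, culture density cut under 30%, mutant RFP and density less affected; inactive = any of these conditions unmet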; note: one replicate is shown; some compounds called inactive have numbers as strong as hits
# Bfl-1 A1 inh: caspase 3/7 activation in MEF A1-2A-BIM cells, primary screen, A1 inhibitor project, cell-based, luminescence, HTS; Caspase-Glo 3/7 luminescence, 3 h; percent of clofoctol response, vehicle zero; caspase activation, % (concentration not given with the values); AID 2462, 2010; 330,000 tested, 0.066% active;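 active = over half of replicate activation scores above 10%, or exactly half above 10 with the replicate mean above 10; inconclusive = replicate mean below 10 yet half the replicates above 10; inactive = over half of replicates below 10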;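 note: wells of about 30 µL received 50 nL stock; many hits fall short of the cut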
# Vif TR-FRET: inhibitors of Vif binding to APOBEC3G peptide, primary screen, biochemical, TR-FRET, GST-Vif 1-94, biotin-A3G peptide, dose response retest (AID 1117319) | Virion infectivity factor (Human immunodeficiency virus type 1 group M subtype B (isolate … | TR-FRET GST-Vif / biotin-A3G peptide binding; higher % means a stronger effect; test concentration not given here; strong numbers were not always called active | inhibition, %, or IC50 in µM where a hit was titrated | 260,000 tested, 0.57% active;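 active = above the screen mean plus three standard deviations and confirmed in dose response; inconclusive = results disagree or hit not tested in dose response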;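 note: Vif residues 1-94 fused to GST binding biotinylated APOBEC3G peptide 110-148; 0% = full assay without inhibitor and 100% = GST in place of GST-Vif; retest series ran down from 100 µM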
# Ecoli rRNA inh OD600: also measured in Ecoli rRNA inh; calls as there; OD600 change, %; measured here: OD600 growth;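 optical density of the mix in the first replicate; 0 = DMSO median and -100 = no signal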
# Ecoli rRNA inh RFP: recorded beside Ecoli rRNA inh, whose call it bears; RFP signal change, %; measured here: RFP humanized mutant strains;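 first replicate; 0 = DMSO median and -100 = no signal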
# Starred values were filed as active, the others as inactive; i = inactive; ? = inconclusive; nt = no result given; & = joins results of further samples.
SMILES,Calb FLC,Beta cell apopt,AF4-AF9 inh,RanGTP-Imp inh,T cruzi inh,Ecoli rRNA inh,Ecoli rRNA inh OD600,Ecoli rRNA inh RFP,Bfl-1 A1 inh,Vif TR-FRET
COC(=O)c1cc(-c2ccc(S(=O)(=O)N3CCCC3)cc2)c(C(F)(F)F)s1,3,-6,-1.5,8.7,21,nt,nt,nt,-0.5,-2%
Cc1ccc(C)c(N(CC(=O)NCc2ccco2)C(=O)CNS(=O)(=O)c2ccccc2)c1,3,0,1.2,5.5,-3,4,2,0.8,0.1,nt
Cc1cccc(C(=O)Nc2ccc(N3CCN(C(=O)c4ccco4)CC3)cc2)c1,-6,3,3.7,-0.2,-5,1,-4,-3.3,0.5,nt
CN1CCN(C(=O)/C(=C/c2ccco2)NC(=O)c2ccccc2)CC1,2,-8,-11,-2.0,3,9,5,1.2,-0.4,nt
Cc1cc(C(=O)Nc2c(C)nn(Cc3c(Cl)cccc3Cl)c2C)no1,26,-7,nt,-0.6,5,nt,nt,nt,1.4,-1%
O=C(CCCCn1c(=O)c2ccccc2n(Cc2ccccc2)c1=O)NC1CCN(Cc2ccccc2)CC1,-1,8,0.8,0.6,59*,5,5,-4.9,0.7,1%
O=C(C1CCN(S(=O)(=O)c2cccc3cccnc23)CC1)N1CCN(c2ccccn2)CC1,2,-11,nt,-0.1,-6,nt,nt,nt,-1.0,-4%
Cn1cnnc1SCC(=O)NC1CCCc2ccccc21 (stereo not given),11,-4,-2.5,0.5,-7,10,10,4.3,-0.2,5%
COc1cc(C(=O)Nc2ccc3c(c2)OCCO3)ccc1-n1cnnn1,-9,6,nt,1.3,-4,nt,nt,nt,0.3,2%
O=C(NCC1CCN(Cc2ccccc2F)CC1)Nc1cccc(Br)c1,-18,6,-0.3,-0.9,21,3,-4,2.1,0.5,-9%
CCOc1ccc(CCNC(=O)COc2cc(=O)n(C)c3ccccc23)cc1OCC,7,-6,-0.3,-1.4,-3,-2,-2,-0.8,-0.1,-3%
CCCn1ccnc1SC(C)C(=O)Nc1c(C)n(C)n(-c2ccccc2)c1=O (stereo not given),nt,-5,1.7,nt,nt,1,-4,-1.3,-1.0,nt
COC(=O)c1c(-c2ccccc2)csc1NC1=NS(=O)(=O)c2ccccc21,1,1,nt,?,8,nt,nt,nt,-1.1,nt
CCOC(=O)c1c(NC(=O)C(=O)N/N=C/c2ccccc2OC)sc2c1CCCCC2,20,-8,nt,0.4,8,nt,nt,nt,0.5,nt
C=CCN(CC=C)C(=S)NC(=O)c1ccc(OC)cc1,27,-1,1.5,-1.5,33,2,1,1.3,0.1,nt
COc1ccccc1OCCCCN1CCN(c2ccccc2OC)CC1,-2,nt,nt,-2.9,-16,nt,nt,nt,-0.3,-6%&20%
CCOc1ccc(NC(=O)CSc2ccc3nnc(-c4ccccn4)n3n2)cc1,5,0,-1.1,1.1,-5,6,8,1.1,0.5,nt
O=C(Nc1nnc(C2CC2)s1)C1Cc2ccccc2CN1S(=O)(=O)c1ccccc1F (stereo not given),-5,4,-86,-5.2,8,13,-9,3.0,-0.5,-11%
COc1ccc(OC)c(S(=O)(=O)CC(O)COc2ccccc2Cl)c1 (stereo not given),-13,3,-0.6,0.5,-10,-2,-7,2.3,-1.8,nt
CCOC(=O)COc1cccc2c(=O)n(CC(=O)NCc3ccc4c(c3)OCO4)ccc12,4,15,6.0,0.6,-48,6,15,-7.5,0.1,?
Cc1ccc(-n2nnnc2SCC(=O)NNC(=O)c2ccco2)cc1C,2,-5,0.5,3.2,-5,0,-5,-3.1,0.0,4%
Cc1ccc(Nc2ccc3nonc3c2[N+](=O)[O-])cc1,-32,-7,0.1,-3.2,7,10,9,2.4,0.7,16%
O=C(/C=C/c1ccccc1)n1cnnc1SC/C=C/c1ccccc1,21,-2,-2.6,-2.4,-10,1,3,-2.2,-0.2,1%
CNC(=O)Cc1csc2ccc(Cl)cc12,9,nt,nt,-1.7,0,nt,nt,nt,-0.2,0%
N#Cc1ccc(/C=N/N=C(N)N)cc1,-6,10,nt,1.7,35,nt,nt,nt,-1.0,11%
# The list continues.
SMILES,Calb FLC,Beta cell apopt,AF4-AF9 inh,RanGTP-Imp inh,T cruzi inh,Ecoli rRNA inh,Ecoli rRNA inh OD600,Ecoli rRNA inh RFP,Bfl-1 A1 inh,Vif TR-FRET
N#C[C@H]1C2OC2c2ccccc2N1C(=O)c1ccccc1 (stereo not given in full),16,0,-2.3,7.6,-12,4,14,-3.3,0.0,nt
CCc1noc(C)c1C(=O)NNC(=O)c1ccccc1Cl,nt,2,-1.3,nt,nt,nt,nt,nt,-1.8,-9%
Oc1cccc(/C=N/N2CCCCC2)c1O,-1,-3,-0.2,-0.3,-12,2,7,0.4,-1.4,-5%
CCOc1ccccc1NC(=O)c1cc(S(=O)(=O)N2CCOCC2)ccc1C,9,-5,-13,4.5,-9,3,-14,1.3,-0.4,-1%
CC1(C)CC(=O)c2cc(OCC(=O)O)ccc2O1,-7,-4,?,5.5,1,13,4,-5.7,0.0,-1%
Cc1ccc(OCCC(=O)NNC(=O)c2cc(C)oc2C)cc1,-3,-6,3.3,nt,-5,0,-3,-1.1,-0.4,2%
CCN1CCc2c(sc(NC(=S)NC(=O)c3ccc(Cl)cc3)c2C(N)=O)C1,2,-8,19,81*,17,9,8,4.5,-0.1,i
O=C(c1cc(COc2ccc(F)cc2Cl)on1)N1CCN(C2CCCC2)CC1,-16,1,3.5,-0.3,29,-6,-20,5.9,-0.7,nt
O=C(CSc1nc2ccccc2o1)Nc1ccccc1N1CCCCCC1,-25,-4,nt,0.6,16,nt,nt,nt,-0.3,2%
CN(C)S(=O)(=O)N1CCc2ccc(NC(=O)c3ccccc3Cl)cc2C1,7,0,-7.1,-5.3,-28,-8,-8,-2.2,0.0,nt
COc1cccc(NC(=O)CSc2ccc3nnc(CCNC(=O)c4ccccc4)n3n2)c1,-5,0,1.0,?,-17,-3,-1,0.6,-0.3,nt
O=C(CSc1nnc(-c2ccc(F)cc2)c2ccccc12)Nc1c(F)cccc1F,7,1,-2.0,3.2,2,-3,-7,0.6,0.8,-13%
S=c1[nH]nc(COc2ccc3c(c2)OCO3)n1-c1ccccc1,15,0,nt,-0.6,-8,nt,nt,nt,0.3,48µM*
COc1ccc(NS(=O)(=O)c2c(F)cc(F)c(Cl)c2F)cc1S(=O)(=O)N1CCCCC1,-5,nt,nt,6.2,-18,nt,nt,nt,-0.5,25%
Cc1ccc(C(=O)NC2CCCCC2)cc1,1,-4,-2.2,-2.9,-30,14,12,-1.2,-0.5,-9%
COc1ccc(CC(=O)NC(C)c2nnc(SCC(=O)c3ccc(OC)cc3)n2C)cc1 (stereo not given),-5,2,-1.2,-3.3,-6,7,9,-3.1,0.0,26%
CCOC(=O)c1c(C)[nH]c(C(=O)Nc2ccc3c(c2)OCO3)c1C,0,5,nt,-4.1,14,nt,nt,nt,-12,6%
N#CC(C(=S)Nc1ccccc1)c1nc2ccccc2[nH]1 (stereo not given),0,44,-3.0,5.5,-21,-38*,-18*,-9.5*,0.6,-3%
CCOC(=O)c1c(C)n(S(=O)(=O)c2ccc(C)cc2)c2ccc(O)c(C(=O)O)c12,17,0,0.8,2.7,13,-32,-45,-8.5,0.3,nt
COCC(=O)Nc1nc2n(n1)C(c1ccccc1Cl)CC(c1ccc(OC)cc1)N2 (stereo not given),111*,-10,5.3,4.7,1,-5,-1,7.2,-0.1,25%
CCOC(=O)C1CCCN(C(=O)c2cc(S(=O)(=O)N3CCCCC3)c[nH]2)C1 (stereo not given),1,-4,0.0,1.9,-7,3,1,-2.3,0.1,nt
Cc1ccc2c(CC(=O)NCC3COc4ccccc4O3)coc2c1 (stereo not given),-6,-1,nt,-3.1,9,nt,nt,nt,0.3,?
N#Cc1cn(Cc2ccccc2)c2ccccc12,-1,-1,nt,-1.7,-15,nt,nt,nt,-0.7,2%
COc1ccc(CCNCC(O)COc2ccc(Cl)cc2)cc1OC (stereo not given),-1,-13,5.0,7.5,48,11,-2,4.6,-0.9,nt
CCN(CC(=O)Nc1ccc2c(c1)OCCO2)C(=O)/C=C/c1ccc(OC)cc1OC,-2,-3,13,0.1,7,nt,nt,nt,0.3,nt

# Reprinted at random: three records from the list
SMILES,Calb FLC,Beta cell apopt,AF4-AF9 inh,RanGTP-Imp inh,T cruzi inh,Ecoli rRNA inh,Ecoli rRNA inh OD600,Ecoli rRNA inh RFP,Bfl-1 A1 inh,Vif TR-FRET
N#C[C@H]1C2OC2c2ccccc2N1C(=O)c1ccccc1 (stereo not given in full),16,0,-2.3,7.6,-12,4,14,-3.3,0.0,nt
S=c1[nH]nc(COc2ccc3c(c2)OCO3)n1-c1ccccc1,15,0,nt,-0.6,-8,nt,nt,nt,0.3,48µM*
CCOC(=O)C1CCCN(C(=O)c2cc(S(=O)(=O)N3CCCCC3)c[nH]2)C1 (stereo not given),1,-4,0.0,1.9,-7,3,1,-2.3,0.1,nt

# Remaining list, next part
SMILES,Calb FLC,Beta cell apopt,AF4-AF9 inh,RanGTP-Imp inh,T cruzi inh,Ecoli rRNA inh,Ecoli rRNA inh OD600,Ecoli rRNA inh RFP,Bfl-1 A1 inh,Vif TR-FRET
Cc1ccc2c(c1)c1ncn(Cc3ccc(F)cc3)c(=O)c1n2C,-3,8,nt,5.2,10,9,11,-1.2,0.2,-29%
COc1ccc(NC(=O)C(C)Oc2ccc(/C(C)=N\O)cc2)cc1 (stereo not given),-1,0,nt,0.1,-3,nt,nt,nt,-0.2,5%
C=CCn1c(C)cc(-c2csc(NC(=O)C3=COCCO3)n2)c1C,2,nt,-19,-1.3,26,10,20,0.7,1.1,0%
O=C(/C=C/c1ccco1)c1ccc(NC(=O)C23CC4CC(CC(C4)C2)C3)cc1,-23,-6,13,-2.6,12,8,12,0.9,0.6,nt
CCCc1nc(N)c(C#N)c(-c2cccnc2)c1CC,-6,-2,2.2,2.3,-6,10,-4,1.1,0.3,1%
Nc1nc(-c2ccc3c(c2)NC(=O)CO3)cs1,1,-4,nt,3.3,-9,nt,nt,nt,-0.5,29%
O=C(Nc1ccc(S(=O)(=O)N2CCCCC2)cc1)c1ccncc1,-1,9,nt,-1.0,-3,nt,nt,nt,2.5,-7%
O=C(Cc1ccsc1)Nc1ccccc1F,-6,-5,-1.6,-4.0,-11,1,7,-0.9,0.0,nt

# Source: PubChem (several laboratories)

# A portion of the library. The share of hits here may be higher or lower than overall.
